High-throughput results from PubChem.
BJeLR viability – BJeLR cell viability loss; BJeLR (HRASV12) viability, CellTiter-Glo ATP luminescence, 48 h; reference of the scale not given here; inhibition, % (concentration not given with the values); 0.17% of 300,000 active;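 active means replicate mean above 50%; inconclusive means above 50% but judged a plate artefact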;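 further: 50 nL library stock added to about 25 µL; numbers are from one replicate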
Sa RN4220 lethal – kills Staphylococcus aureus RN4220. 0.33% of 330,000 active. inhibition, % (test concentration not listed). S. aureus RN4220 growth, OD600, 16 h;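 active means z-score of -3 or lower and OD600 up to 0.18 on both plates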;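 further: plate controls were untreated cells for no effect and reference antibiotic for full effect; stock transfer was 100 nL into about 80 µL; one replicate is shown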
Mtb hypoxia inh – reduces hypoxia-regulated biosensor signal in M. tuberculosis; M. tuberculosis hypoxia-regulated fluorescent reporter, fluorescence; fluorescence inhibition, % (concentration not given with the values); AID 1159583; 0.1% of 300,000 active;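 active means 35 to 45% if threefold the growth effect, above 45% if 1.5-fold the growth effect; inactive means the rest, general growth blockers included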;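 further: wells of about 50 µL received 100 nL stock; 0% = vehicle wells and 100% = reference inhibitor wells; whole bacteria with a GFP reporter of the hypoxia response; strong numbers were not always called active; many hits fall short of the cut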
PrP 5UTR inh – suppresses PrP 5' UTR mRNA reporter expression. cell-based PrP 5' UTR mRNA reporter, plate reader. AID 488862. 0.35% of 340,000 active. inhibition, % (concentration not given with the values);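 active means every replicate at 50% or more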;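 further: 0 = median of the neutral control wells; tested in H4 reporter cells; numbers are from one replicate; inactives centre near -14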
Bead autofluor – compound fluorescence in toxin protease inhibitor counterscreen; compound autofluorescence counterscreen, microsphere flow cytometry; hits give high values; fluorescence intensity (no concentration beside the values); 3.1% of 360,000 active; AID 624483;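 active means at least 3 SD above the mean of all compounds, about 16000 in these data; inconclusive means too few beads counted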;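 further: 100 nL of 1 mM stock went into each well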
Sa ugtP lethal – kills S. aureus RN4220 lacking UgtP. S. aureus RN4220 ugtP deletion, OD600 growth, 16 h; some inactives read as strong as hits. growth inhibition, % (test concentration not listed). 0.54% of 330,000 active;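 active means z-score under -3 and OD600 up to 0.15 on both plates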;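 further: plate controls were untreated wells for no effect and antibiotic for full effect; wells of about 80 µL received 100 nL stock; the first replicate is given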
Mtb hypoxia inh growth – also measured in Mtb hypoxia inh; calls as there; growth inhibition, %; measured here: M. tuberculosis growth (absorbance);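 0% = vehicle and 100% = reference antibiotic; read after six days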
* hit, by the source's call; u = inconclusive; x = no result given.

SMILES	BJeLR viability	Sa RN4220 lethal	Mtb hypoxia inh	Mtb hypoxia inh growth	PrP 5UTR inh	Bead autofluor	Sa ugtP lethal
CC1CCN(C(=O)C2c3ccccc3C(=O)N3CCc4ccccc4C23)CC1 (configuration not stated)	-10	2.2	4	-1	-14	22497*	-5
CCN(C(=O)COC(=O)c1sccc1C)c1c(N)n(Cc2ccccc2)c(=O)[nH]c1=O	-4	x	x	x	1	u	x
CCOc1cc(/C=C2\SC(=S)N(NS(=O)(=O)c3ccccc3)C2=O)ccc1O	1	80	10	3	-14	3443	64
O=C(c1cccs1)N1CCN(CCCc2ccccc2)CC1	2	2.4	3	5	-17	21596*	5
Cc1cc(NC(=O)c2c(C)noc2C)no1	-9	1.6	-1	-7	-11	6162	4
N#C/C(=C\c1cc(O)c(O)c(O)c1)C(N)=O	-6	5.0	17	-9	-13	3025	3
Cn1cccc1C(=O)OCC(=O)Nc1cccc(S(=O)(=O)N2CCOCC2)c1	-2	4.0	12	7	-30	4017	-4
O=C(NCCC1=CCCCC1)c1ccc2c(c1)N(Cc1ccccc1)C(=O)CS2	-11	-10	5	6	-14	9669	-14
CCCCCn1c(N)c(-c2nc3ccccc3s2)c2c([N+](=O)[O-])nn(CC)c(=O)c21	5	0.0	1	-6	-13	17846*	-40
COC(=O)N1C(C)C=C[C@]1(Cc1ccccc1)C(=O)O (some centres not stated)	x	6.6	3	5	x	x	13
O=C(NCc1ccco1)C(c1cccs1)N(C(=O)C1COc2ccccc2O1)c1cccc(O)c1 (configuration not stated)	12	-1.8	x	x	-5	3489	0
CN(Cc1c(C(=O)N/N=C/c2cccs2)nnn1-c1nonc1N)c1ccccc1	2	x	x	x	-7	5663	x
CCOc1ccc(/C=C/C2=NNC(=O)CC2)cc1	8	5.0	12	4	-10	2411	6
CC(C)=CCc1c(O)cc2c(c1O)C(=O)CC(c1ccc(O)cc1)O2 (configuration not stated)	-4	13	x	x	-14	4047	52
CCC(CC)C(=O)c1c[nH]c(C(=O)N2CCN(c3ccc(OC)cc3)CC2)c1	-11	5.6	11	-2	-10	3340	6
COc1ccc(C(=O)COC(=O)CNC(=O)c2cccc(OC(F)F)c2)cc1	1	2.0	-2	-1	-43	4279	12
Cc1ccc(Sc2nc(-c3ccccc3)ccc2C#N)cc1	-16	1.0	-12	-6	-6	10168	2
CC(C)c1c(C(=O)NN=Cc2c[nH]c3ccccc23)nnn1-c1nonc1N	x	-0.1	-5	-1	x	x	1
CC(C)(C)c1nnc(NC(=O)c2ccc3c(c2)OCO3)s1	0	6.2	11	3	-145	4740	3
CCOc1ccccc1C(=O)NCC(=O)OCCOc1cccc(Cl)c1	-8	-0.8	8	2	-23	5833	-1
COc1cccc(C2SCC(=O)N2c2cccc(C)c2)c1OC (configuration not stated)	-7	4.4	8	3	-32	2151	-1
Cc1ccc(NS(=O)(=O)c2ccccc2[N+](=O)[O-])cc1C	-1	8.3	-10	6	5	2328	1
CCC(C)(C)n1nnnc1C(C(C)C)N1CCSCC1 (configuration not stated)	4	1.3	-6	1	-10	5542	-2
C[C@H](NC(=O)OC(C)(C)C)c1nnc(SCC(N)=O)o1	2	4.8	-2	4	-9	9628	-1
Cc1cccc(C)c1Nc1c(-c2ccccn2)nc2ccccn12	-9	59	-2	5	-6	4273	32
SMILES	BJeLR viability	Sa RN4220 lethal	Mtb hypoxia inh	Mtb hypoxia inh growth	PrP 5UTR inh	Bead autofluor	Sa ugtP lethal
O=C(Nc1ccccc1C(=O)Nc1ccncc1)c1ccccc1	2	3.0	6	7	-17	5103	10
Cc1ccc(NC(=O)CN2CCC(C(=O)c3ccc4c(c3)OCCO4)CC2)cc1	-5	3.2	7	-2	-17	3291	5
COc1cc(CCC(=O)NNC(=O)c2ccc(Cl)cc2)cc(OC)c1OC	-6	3.6	3	5	-11	3596	6
O=C(CC(c1ccccc1)(c1ccccc1)c1ccccc1)NC(Cc1ccccc1)C(=O)O (configuration not stated)	x	7.8	-1	0	x	x	7
CCOc1ccc(-c2cc(C(=O)OC)nc3c2c(=O)n(C)c(=O)n3C)cc1	2	2.8	2	9	-34	3425	1
CCOc1ccccc1OCC(=O)Oc1ccc(C)c(C)c1	-10	2.4	0	3	3	4143	3
CCCCC1(C)NC(=S)N2N1C(=S)NC2(C)CCCC (configuration not stated)	-11	x	x	x	-1	5097	x
CC(C)Cn1cnc2c(SCc3ccc(Cl)cc3)nc(N)nc21	x	5.8	9	12	-49	3448	4
CCC(=O)N1CCc2cc(S(=O)(=O)Nc3ccccc3C)ccc21	8	6.1	5	-2	-2	3588	-3
CCCCOC(=O)Nc1ccc(S(=O)(=O)Nc2ccc([N+](=O)[O-])cc2)cc1	0	4.6	-4	3	-42	10065	-11
COc1ccc(NC(=O)CSc2ccc3c4c(cccc24)C(=O)c2ccccc2-3)cc1	-2	-3.7	-7	0	-20	9656	-3
CC(=NN=C1NC(=O)CC(C(=O)O)S1)c1ccccc1 (configuration not stated)	x	9.8	7	6	x	x	-3
CC1CCN(CCCn2c(=S)[nH]c3ccc(N4CCOCC4)cc3c2=O)CC1	4	2.6	-4	3	-13	22801*	-6
CCc1ccc(/C=C/c2c([N+](=O)[O-])c(=O)n(C)c(=O)n2C)cc1	-3	2.8	6	2	16	2910	1
O=C(CNS(=O)(=O)c1ccccc1Br)OCC(=O)N1CCc2ccccc21	-4	9.0	9	8	-10	4468	3
CCOC(=O)C1=C(O)CSC1=Nc1ccc(C)cc1	-5	3.6	-2	3	-34	6346	3
O=C(O)C1C2CC2CN1C(=O)c1ccc(Cl)cc1Cl (configuration not stated)	-3	20	2	1	-9	4436	-2
COc1cccc(CC(=O)Nc2ccccc2C(=O)N2CCOCC2)c1	-3	4.6	-4	3	-34	2592	7
COc1ccc(C=Nn2c(SC)nnc2-c2ccccc2)c(OC)c1OC	x	-9.5	9	7	x	x	-3
COc1cc(NC(=S)NCCCN(C)C)c(OC)cc1NC(=O)c1ccco1	-3	-1.4	3	-5	-17	5212	-6
Cc1ccc(C(O)=C2C(=O)C(=O)N(c3cc(C)on3)C2c2cccc(Br)c2)cc1 (configuration not stated)	x	16	-15	1	x	x	18
CCCCN1CCNC[C@@H]1Cc1ccc(O)cc1	6	x	x	x	-17	3213	x
COc1ccc(/C=C2/C(=O)N(c3c(F)c(F)c(F)c(F)c3F)N=C2C)cc1	5	0.1	9	3	-23	3762	10
O=S(=O)(Nc1ccc(-n2cnnn2)cc1)c1ccc(F)c(F)c1F	2	3.4	13	1	-2	4582	7
O=C1C=C(c2ccccc2)CC(c2ccc(F)cc2)C1 (configuration not stated)	1	3.9	12	11	-7	4097	-7
SMILES	BJeLR viability	Sa RN4220 lethal	Mtb hypoxia inh	Mtb hypoxia inh growth	PrP 5UTR inh	Bead autofluor	Sa ugtP lethal
Cc1c(C)n(C(=O)CSc2nc3ccccc3[nH]2)c2ccccc12	-2	2.1	15	8	0	2573	15
CC(/C=C/c1ccc2c(c1)OCO2)=NNC(=O)c1ccccc1	x	3.5	8	2	x	x	6
O=C(O)C1C2CCC(O2)C1C(=O)Nc1cccc(Cl)c1 (configuration not stated)	6	1.4	-2	9	-29	3613	1
C=CC[C@@H](CC(=O)OC(C)(C)C)C(=O)OC[C@H]1CCCN1C(=O)[C@@H](CC=C)CC(=O)N[C@H](CO)Cc1ccccc1	x	-9.8	9	3	-7	4063	-1
CCOc1cc(C(=O)NC(C)COC)cc(OCC)c1OCC (configuration not stated)	0	-0.1	3	6	10	5436	1
Cc1nn(CC(=O)NC(C)c2ccccc2)c(C)c1[N+](=O)[O-] (configuration not stated)	15	2.1	-10	-6	-15	4072	2
COc1cccc(CNC(=O)c2ccc(NC(=O)C3=CSCCO3)cc2)c1	-4	-5.9	-7	1	-14	4415	-6
Clc1cccc(NN=Cc2ccncc2)c1	x	0.2	1	-7	x	x	-17
O=C(Cc1ccc(Cl)cc1)NC1CCCN(Cc2ccccc2F)C1 (configuration not stated)	-10	1.0	-3	0	-25	4032	6
CC1CCN(S(=O)(=O)c2cccc(C(=O)NC3CCCCC3)c2)CC1	-1	-1.9	-6	11	-2	3557	7
CCOC(=O)C1=C(C)NC(=O)NC1c1ccc(N(C)C)cc1 (configuration not stated)	3	7.3	3	7	-34	5969	6
CCc1cccc(NS(=O)(=O)c2c(C)[nH]c(=O)[nH]c2=O)c1	5	1.1	-2	-1	-23	3682	2
COc1cccc(N2C(=O)[C@H]3C(C(=O)c4cnccn4)=NN[C@H]3C2=O)c1	14	x	x	x	-17	5301	x
COc1cccc(NC(=O)CC2(CC(=O)O)CCCC2)c1	3	4.7	0	6	-16	9910	1
OC(CBr)C(O)C(O)C(O)CBr (configuration not stated)	x	4.8	-1	0	x	x	-2
O=C(O)CCCC(=O)NCc1c(Cl)cccc1Sc1ccc(Cl)cc1	-12	3.8	5	11	-21	4014	9
CC(C)N(CC#CCC(O)(c1ccccc1)c1ccccc1)C(C)C	5	2.2	2	4	-3	9931	2
CCOc1ccc(CCNS(=O)(=O)c2ccc3c(c2)oc(=O)n3C)cc1OCC	-3	4.3	9	4	-13	5156	-7

Exported in markdown: 22 of the compounds above
| structure | BJeLR viability | Sa RN4220 lethal | Mtb hypoxia inh | Mtb hypoxia inh growth | PrP 5UTR inh | Bead autofluor | Sa ugtP lethal |
| --- | --- | --- | --- | --- | --- | --- | --- |
| CCCCN1CCNC[C@@H]1Cc1ccc(O)cc1 | 6 | x | x | x | -17 | 3213 | x |
| COc1ccc(/C=C2/C(=O)N(c3c(F)c(F)c(F)c(F)c3F)N=C2C)cc1 | 5 | 0.1 | 9 | 3 | -23 | 3762 | 10 |
| O=S(=O)(Nc1ccc(-n2cnnn2)cc1)c1ccc(F)c(F)c1F | 2 | 3.4 | 13 | 1 | -2 | 4582 | 7 |
| O=C1C=C(c2ccccc2)CC(c2ccc(F)cc2)C1 (configuration not stated) | 1 | 3.9 | 12 | 11 | -7 | 4097 | -7 |
| Cc1c(C)n(C(=O)CSc2nc3ccccc3[nH]2)c2ccccc12 | -2 | 2.1 | 15 | 8 | 0 | 2573 | 15 |
| CC(/C=C/c1ccc2c(c1)OCO2)=NNC(=O)c1ccccc1 | x | 3.5 | 8 | 2 | x | x | 6 |
| O=C(O)C1C2CCC(O2)C1C(=O)Nc1cccc(Cl)c1 (configuration not stated) | 6 | 1.4 | -2 | 9 | -29 | 3613 | 1 |
| C=CC[C@@H](CC(=O)OC(C)(C)C)C(=O)OC[C@H]1CCCN1C(=O)[C@@H](CC=C)CC(=O)N[C@H](CO)Cc1ccccc1 | x | -9.8 | 9 | 3 | -7 | 4063 | -1 |
| CCOc1cc(C(=O)NC(C)COC)cc(OCC)c1OCC (configuration not stated) | 0 | -0.1 | 3 | 6 | 10 | 5436 | 1 |
| Cc1nn(CC(=O)NC(C)c2ccccc2)c(C)c1[N+](=O)[O-] (configuration not stated) | 15 | 2.1 | -10 | -6 | -15 | 4072 | 2 |
| COc1cccc(CNC(=O)c2ccc(NC(=O)C3=CSCCO3)cc2)c1 | -4 | -5.9 | -7 | 1 | -14 | 4415 | -6 |
| Clc1cccc(NN=Cc2ccncc2)c1 | x | 0.2 | 1 | -7 | x | x | -17 |
| O=C(Cc1ccc(Cl)cc1)NC1CCCN(Cc2ccccc2F)C1 (configuration not stated) | -10 | 1.0 | -3 | 0 | -25 | 4032 | 6 |
| CC1CCN(S(=O)(=O)c2cccc(C(=O)NC3CCCCC3)c2)CC1 | -1 | -1.9 | -6 | 11 | -2 | 3557 | 7 |
| CCOC(=O)C1=C(C)NC(=O)NC1c1ccc(N(C)C)cc1 (configuration not stated) | 3 | 7.3 | 3 | 7 | -34 | 5969 | 6 |
| CCc1cccc(NS(=O)(=O)c2c(C)[nH]c(=O)[nH]c2=O)c1 | 5 | 1.1 | -2 | -1 | -23 | 3682 | 2 |
| COc1cccc(N2C(=O)[C@H]3C(C(=O)c4cnccn4)=NN[C@H]3C2=O)c1 | 14 | x | x | x | -17 | 5301 | x |
| COc1cccc(NC(=O)CC2(CC(=O)O)CCCC2)c1 | 3 | 4.7 | 0 | 6 | -16 | 9910 | 1 |
| OC(CBr)C(O)C(O)C(O)CBr (configuration not stated) | x | 4.8 | -1 | 0 | x | x | -2 |
| O=C(O)CCCC(=O)NCc1c(Cl)cccc1Sc1ccc(Cl)cc1 | -12 | 3.8 | 5 | 11 | -21 | 4014 | 9 |
| CC(C)N(CC#CCC(O)(c1ccccc1)c1ccccc1)C(C)C | 5 | 2.2 | 2 | 4 | -3 | 9931 | 2 |
| CCOc1ccc(CCNS(=O)(=O)c2ccc3c(c2)oc(=O)n3C)cc1OCC | -3 | 4.3 | 9 | 4 | -13 | 5156 | -7 |
